Bioassay records: PubChem, National Center for Advancing Translational Sciences (NCATS)
HPGD inh: inhibitors of human 15-hydroxyprostaglandin dehydrogenase (HPGD). Potency, µM, without a hit: top-dose activity change, negative = inhibition, hits mostly inhibitors. P15428. AID 894. purified HPGD, NADH fluorescence kinetic, PGE2 substrate. hit rate 4.3% among 150,000; active = well fitted inhibition curve with a large enough effect (not every such curve was filed as active); inconclusive = small, poorly fitted or top-dose-only effect, or another doubt; inactive = no such curve, though single readings can be large or run the other way;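 also: top concentration of the series not given in the record; plate controls included wells without enzyme; inactives centre near -10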
Target sequence (P15428 whole entry, looked up): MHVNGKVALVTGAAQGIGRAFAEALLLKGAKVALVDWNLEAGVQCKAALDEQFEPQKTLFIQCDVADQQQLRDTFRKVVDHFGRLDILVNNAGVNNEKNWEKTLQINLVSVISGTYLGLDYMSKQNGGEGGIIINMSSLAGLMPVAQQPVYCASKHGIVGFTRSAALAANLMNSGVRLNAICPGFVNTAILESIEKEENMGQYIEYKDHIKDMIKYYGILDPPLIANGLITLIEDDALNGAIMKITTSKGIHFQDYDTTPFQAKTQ
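NADH formation kinetics: reaction with 30 uM PGE2 and 1 mM NAD+ (final), 20 nM enzyme, Tris-HCl pH 8 with Tween 20, after 15 min compound preincubation at room temperature. Fluorescence change, last versus first of five reads.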
* hit, by the source's call; ? = inconclusive; & = joins results of further samples. % is scaled to controls: 0 for no effect and ±100 for the full control effect; potency is read from the fitted curve at half-maximal effect.

HPGD inh	molecule
-12%	Cc1ccc(C2NC(=S)NC3=C2N2CCC3CC2)cc1 (configuration not stated)
4.5µM*	N#C/C(=C\c1ccc[nH]1)S(=O)(=O)c1ccccc1
-2%	Nn1cnnc1SCC(=O)Nc1ccc2c(c1)OCCO2
-22%	O=C(CSCc1ccc(Cl)cc1)NCc1ccc2c(c1)OCO2
-15%	O=C(NCc1cccs1)C1CCN(c2nccs2)CC1
-15%	Cc1nn(CC(=O)Nc2ccc3c(c2)nc2n3CCOC2)c(=O)c2ccccc12
-3%	CCOC(=O)c1sc(=S)n(CC)c1NC(=O)C1CC1
-20%	O=C(CSc1nnc(Cc2cccs2)n1Cc1ccco1)Nc1ccc(Cl)cc1Cl

New compounds follow.
HPGD inh	molecule
-11%	S=C(NCCc1ccc(Cl)cc1)Nc1ccc(Cl)cc1Cl
-6%	CCNCc1cc(Cl)cc(OC)c1OC(C)C
-19%	c1ccc2c(c1)CCN(c1ncnc3nc[nH]c13)C2
-16%	CCc1nnc(NC(=O)C2CC(=O)N(c3ccc(C)cc3)C2)s1 (configuration not stated)
-2%	O=C(Cc1ccc(Cl)cc1)NCCN1CCCC1
?	C=NC(C(=O)NC1C(=O)N2C1SC(C)(C)C2C(=O)O)c1ccccc1 (configuration not stated)
-29%	COc1cc(C=O)ccc1OCCOCCOc1ccc(Cl)cc1
?	CCOC(=O)c1c(NC(=O)c2ccc(Cl)s2)sc(C)c1C

The final 6 compounds of the part above lead into the next.
HPGD inh	molecule
-19%	c1ccc2c(c1)CCN(c1ncnc3nc[nH]c13)C2
-16%	CCc1nnc(NC(=O)C2CC(=O)N(c3ccc(C)cc3)C2)s1 (configuration not stated)
-2%	O=C(Cc1ccc(Cl)cc1)NCCN1CCCC1
?	C=NC(C(=O)NC1C(=O)N2C1SC(C)(C)C2C(=O)O)c1ccccc1 (configuration not stated)
-29%	COc1cc(C=O)ccc1OCCOCCOc1ccc(Cl)cc1
?	CCOC(=O)c1c(NC(=O)c2ccc(Cl)s2)sc(C)c1C
-11%	Cc1ccc(C)c(NC(=O)c2ccccc2O)c1
-21%	O=C(O)c1cc2c(ccc3ccccc32)[nH]1
-4%	CCc1ccccc1O
-7%	O=C1c2cc(Br)ccc2O[C@@H](c2ccc3c(c2)OCO3)[C@@H]1O
?	COc1ccc(C2C(C(C)=O)=C(C)N=c3s/c(=C\c4cc(C)n(C)c4C)c(=O)n32)c(OC)c1 (configuration not stated)
-5%	Cc1cccc(OCCCC(=O)Nc2ccc(N3CCCCC3)cc2)c1C
-3%	CCOC(=O)C1CCN(Cc2ccc(F)c(F)c2)CC1
-4%	COc1ccccc1CNC(=O)CCc1nc2ccccc2c(=O)[nH]1

(cont.)
HPGD inh	molecule
-9%	COC(=O)c1ccc(CSCC(=O)Nc2cc(OC)cc(OC)c2)o1
-2%	O=C(NCCOc1ccccc1Cl)C(=O)Nc1ccccc1
-5%	CN(C)CCNC(NC(=O)c1cccs1)C(Cl)(Cl)Cl (configuration not stated)
-4%	COc1ccc(NC(=O)CCN2CCCC2)c(OC)c1
-6%	C[C@@](N)(C(=O)O)c1ccc(P(=O)(O)O)cc1
-9%	COc1ccccc1OCCn1c(CO)nc2ccccc21
-5%	COc1ccc(NC(=O)N2CC[C@@]3(CCCN(S(C)(=O)=O)C3)C2)cc1
?	CCSc1nnc(-c2cc3c(s2)-c2ccccc2CC3)o1

As a working copy, part of the list above.
HPGD inh	molecule
-9%	COC(=O)c1ccc(CSCC(=O)Nc2cc(OC)cc(OC)c2)o1
-2%	O=C(NCCOc1ccccc1Cl)C(=O)Nc1ccccc1
-5%	CN(C)CCNC(NC(=O)c1cccs1)C(Cl)(Cl)Cl (configuration not stated)
-4%	COc1ccc(NC(=O)CCN2CCCC2)c(OC)c1
-6%	C[C@@](N)(C(=O)O)c1ccc(P(=O)(O)O)cc1

The listing picks up; the four compounds before the break are reprinted first.
HPGD inh	molecule
-6%	C[C@@](N)(C(=O)O)c1ccc(P(=O)(O)O)cc1
-9%	COc1ccccc1OCCn1c(CO)nc2ccccc21
-5%	COc1ccc(NC(=O)N2CC[C@@]3(CCCN(S(C)(=O)=O)C3)C2)cc1
?	CCSc1nnc(-c2cc3c(s2)-c2ccccc2CC3)o1
-16%	O=C(NCCCN1CCOCC1)c1cc(-c2ccc(Cl)cc2)on1
-14%	Cc1cccc(N2CC(C(=O)Nc3nnc(SCC(=O)Nc4cc(C)on4)s3)CC2=O)c1 (configuration not stated)
-9%	Cc1cc(C)c2c(n1)SCC(=O)N2CC(=O)NCCC1=CCCCC1
-8%	COc1ccccc1OCC(=O)Nc1nonc1NC(=O)COc1ccccc1OC
0%&-10%&0%	CC1=CC(=O)CC(C)(C)C1(O)/C=C/C(C)=C\C(=O)O (configuration not stated)
10µM*	O=C1CSC(=Nc2cc(Cl)ccc2Cl)N1
-5%	Cc1ccc(NC(=S)N2CCC(N(C)CC3CCCO3)CC2)c(C)c1 (configuration not stated)
28µM*	O=[N+]([O-])c1ccc(NC(=S)N/C(=N/CS(=O)(=O)c2ccccc2)c2ccccc2)cc1

(listing goes on)
HPGD inh	molecule
-22%	CCN=c1sc2ccccc2n1CC(O)COc1ccccc1 (configuration not stated)
-17%	CCC1CCCCN1C(=O)Nc1ccc(F)cc1 (configuration not stated)
-7%	N=c1sccn1CC(=O)Nc1ccccc1-c1ccccc1
?	CCCc1nc(N)c(C#N)c(-c2ccco2)c1CC
32µM*	O=C(O)c1ccccc1-c1ccc(/C=c2\sc3nc4cc(Br)cnc4n3c2=O)o1
?	CCN(CC)C(=O)c1cc2c(=O)oc3ccccc3c2s1
?	COC(=O)c1cc(NC(=O)c2c(Cl)nc3sccn23)cc(C(=O)OC)c1
-1%	O=C(O)Cc1[nH]cnc1C(=O)O

Further compounds:
HPGD inh	molecule
25µM*	Brc1ccc(CSc2nnc(-c3ccco3)o2)cc1
-20%	Cc1ccc(S(=O)(=O)Nc2nncs2)cc1
-6%	O=C(NCC1(c2ccccc2)CCCC1)c1cccc(Br)c1
-4%	O=C(Nc1cc(N2CCOCC2)ncn1)Nc1cccc2ccccc12
-8%	CC(C)(C)C(=O)/C=C(N)/C=C/c1ccccc1
-6%	CS(=O)(=O)N(CC(=O)NC1CCCCC1)Cc1ccc(Cl)cc1
?	CCN1c2ccccc2-c2nc3ccccc3n2C1c1cccs1 (configuration not stated)
-17%	COc1cc(O)c(CCC(=O)c2cc(OC)c(OC)c(OC)c2)c(OC)c1

(listing goes on)
HPGD inh	molecule
-17%	CCn1nnc(NC(=O)COc2ccc(C3CCCCC3)cc2)n1
?	CC(NC(=O)Cc1cccs1)C(c1cccs1)N1CCOCC1 (configuration not stated)
-4%	COc1ccccc1OCCCc1c(C)n[nH]c1C
-9%	COCCCCCCCCCCCC(=O)O
-19%	Cc1cccc(-c2nc(CN3CCCC(C(=O)NC4CCCC4)C3)c(C)o2)c1 (configuration not stated)
-6%	CCN1CCN(Cc2nc3c(c(=O)n(C)c(=O)n3C)n2C(C)C(C)=O)CC1 (configuration not stated)
-10%	O=C(NCc1ccc(Cl)cc1)c1cc(=O)nc2sc(-c3ccccc3)nn12
-5%	COc1ccc2c(c1)OCc1c-2oc2cc(OC)ccc12

(list continues)
HPGD inh	molecule
-14%	COc1ccccc1Oc1cc(F)nc(N)n1
?	COc1ccc(/C=C/C(=O)Nc2ccc(-c3nnc4n3CCCCC4)cc2)c(OC)c1
?	O=C(CN1CCN(CCN2C(=O)c3cccc4cccc(c34)C2=O)CC1)c1ccc(Cl)cc1
-9%	COc1oc(-c2ccccc2)nc1C(F)(F)F
0%	COc1cc(CC(=O)NNC(=O)c2cc(C)oc2C)cc(OC)c1OC
-5%	COC(=O)C1=C(SC)N(c2ccc(OC)cc2)C(c2ccccc2)CC1=O (configuration not stated)
-10%	CCC(C)N1CCCC1C(=O)Nc1c(C)cc(C)cc1C (configuration not stated)
-2%	COC(=O)CCC(=O)OC1(C)C(=O)C=C2C=C(C3CC3)N(C3CCCCC3)C=C2C1=O (configuration not stated)

The list goes on:
HPGD inh	molecule
-1%	CCOCCn1c(COc2ccc(C)cc2)nc2ccccc21
-2%	COc1cc2oc(=O)cc(-c3ccc(-c4ccc(OC(F)(F)F)cc4)cc3)c2c(OC)c1OC
-14%	Cc1nn(Cc2ccc(Cl)c(Cl)c2)c(C)c1NC(=O)c1cn(-c2ccccc2)nc1-c1ccccc1
?	CC[C@@H]1C(c2ccccc2)=NN(c2ccccc2)[C@H]1C(=O)N1CCOC1=O
-15%	COc1ccc(C(=O)NCC(c2cccnc2)N2CCN(c3ccc(F)cc3)CC2)cc1OC (configuration not stated)
-19%	O=c1sc2ccccc2n1CCOc1ccccc1
-11%	CC(C)(C)NC(=O)C(OC(=O)Cn1nnc(-c2ccc(F)cc2)n1)c1ccncc1 (configuration not stated)
-3%	CC(=O)Nc1ccc(S(=O)(=O)N2CCCC2C(=O)O)cc1 (configuration not stated)

Next section.
HPGD inh	molecule
-12%	CCOC(=O)Cc1cc(=O)n2[nH]c(C)c(-c3ccccc3)c2n1
-4%	COc1cccc(C(=O)OCCCN(C)C)c1
5%	Cc1cc(=O)n2ncnc2n1COCCO
?	O=C(NN=C1c2ccccc2-c2ccccc21)c1ccccn1
-11%	CC(CN(C)Cc1ccccc1)OC(=O)c1ccccc1F (configuration not stated)
-27%	Cc1cccc(NC(=O)CSc2nnc(CCCCCNC(=O)OC(C)(C)C)o2)c1C
7%	CC1CCCCC1NC(=O)c1cc2c(s1)CS(=O)(=O)C2 (configuration not stated)
-12%	COC(=O)C(F)(F)Sc1c(C)[nH]c2ccccc12

New compounds follow
HPGD inh	molecule
-4%	Cc1cccc(/C=N/NC(=O)Cn2nc(C)cc2C)n1
-7%	CC1CCCC(NC(=O)COC(=O)c2ccc3ccccc3n2)C1C (configuration not stated)
-15%	O=C(Cn1cnc2ccccc2c1=O)Nc1ccc2c(c1)OCCO2
-6%	CCC(C)Sc1nc2ccccc2n1CC(=O)O (configuration not stated)
-6%	COCCN(C(=O)Cc1cccs1)C(C(=O)NCc1ccc(OC)cc1)c1ccccc1 (configuration not stated)
-3%	COC(=O)CNC(=O)C1(CC(C)C)C=CCN1C(C)=O (configuration not stated)
-7%	CCOC(=O)C(CCCOc1ccc(C)cc1)C(=O)OCC
-20%	CC(C)C(=O)N=c1sc2cc(F)cc(F)c2n1C

(next part)
HPGD inh	molecule
-13%	CC(C)c1ccccc1-n1c(SCC(=O)N2CCN(c3ccccc3)CC2)nnc1-c1cccnc1
-5%	O=C(CCSc1nnc(-c2ccccc2)o1)N1CCOCC1
-6%	Cc1ccc(C)c(NC(=O)C2(C)CC3c4ccccc4C2c2ccccc23)c1 (configuration not stated)
-13%	CCCC1CCC(C(=O)n2nc(N)c3cc4ccc(OC)cc4nc32)CC1 (configuration not stated)
0%	CCOC(=O)C1=C(C)NC(=O)NC1c1cccnc1 (configuration not stated)
-18%	Cc1ccoc1C(=O)Nc1ccc(CC(=O)O)cc1
-4%	Cc1ccc(-c2nc(CSCC(=O)NCCN3CCN(Cc4ccccc4)CC3)c(C)o2)cc1
-16%	O=C(CC(c1ccccc1O)N1CCCCC1)N1CCCCC1 (configuration not stated)

Remaining list, next part
HPGD inh	molecule
-16%	O=C(Oc1ccc2c(c1)OCO2)c1ccc(Br)c(S(=O)(=O)N2CCOCC2)c1
-12%	Cc1cc(NC(=O)c2cc(-c3ccccc3)on2)n(-c2ccccc2)n1
3%	NCC12CC3CC(CC(O)(C3)C1)C2
0%	O=C(NC1CCN(Cc2ccccc2)CC1)c1ccc(-n2c(=O)c(=O)[nH]c3ccccc32)cc1
-17%	Cc1ccccc1NC(=O)CN1C(=S)NC(C)(C)CC1C (configuration not stated)
-21%	COC(=O)CSc1nc2cc3c(cc2cc1C#N)OCO3
22µM*	Nc1nnc(SCC(=O)c2ccc3ccccc3c2)s1
-11%	COC(=O)c1ccc(S(=O)(=O)NCc2cccc(OC)c2)n1C

Next part
HPGD inh	molecule
-3%	COc1ccc(S(=O)(=O)N2CCC(C(=O)N3CCc4ccccc4C3)CC2)cc1C
?	CCOc1ccc2[nH]c(=O)c(CN(CCOC)C(=O)N3CCOCC3)cc2c1
-6%	Cn1c(=O)c2c(nc(N3CCOCC3)n2C)n(C)c1=O
-7%	CCCn1c(OC)nc2c1c(=O)n(C)c(=O)n2C
-18%	O=c1[nH]cnc2c1oc1ccccc12
-11%	Cc1noc(C)c1C(c1ccccc1)S(=O)(=O)c1ccccc1 (configuration not stated)
-19%	N/C(Cc1cccc2ccccc12)=N\OC(=O)COc1ccccc1
-31%	COC(=O)c1ccc(NC(=O)CN2CCN(S(=O)(=O)c3cc(Cl)ccc3OC)CC2)cc1

Next part:
HPGD inh	molecule
-14%	Cc1ccnc(NC(=O)c2ccccc2NC(=O)C(C)(C)C)c1
-10%	Cc1sc2nc(C3CC3)nc(N3CCN(S(=O)(=O)c4ccc(F)cc4)CC3)c2c1C
-17%	CSc1ncccc1C(=O)OCc1ccccc1F
-22%	Brc1ccc(OCc2nc(-c3ccccn3)n[nH]2)cc1
-4%	CCOC(=O)c1sc(NC(=O)COC(=O)c2ccco2)nc1C
-17%	O=P(C1=C(N2CCOCC2)/C(=C\c2ccccc2)CC1)(N1CCOCC1)N1CCOCC1
-9%	COc1cc(N=C(N)N=C(N)N)c2ncccc2c1
-12%	N#CC1=C(N)C(C#N)(C#N)C2(C(=O)Nc3ccccc32)C2CCCC=C12 (configuration not stated)

Next part:
HPGD inh	molecule
-22%	O=C(NC1(C(F)(F)F)C(=O)Nc2c1c(=O)[nH]c(=O)n2Cc1ccccc1)c1ccc(Cl)cc1Cl (configuration not stated)
-16%	COc1cccc(OC)c1OCCNC[C@@H]1COc2ccccc2O1
-15%	CCOC(=O)c1sc(/N=C/N(C)C)nc1C
-9%	CCc1nccn1S(=O)(=O)c1cc(Br)ccc1OC
-7%	CC(C)(C)c1ccc([C@@H](O)CCCN2CCC(C(O)(c3ccccc3)c3ccccc3)CC2)cc1

These rows are one share of the data, so the mix of outcomes need not match the whole.
